Menin MLL FP FL = inhibitors of human menin-MLL interaction, wild-type MLL peptide; Fluorescence polarization, fluorescein-MLL peptide displacement from menin; FP activity change, % at 61.4 µM; 290,000 tested, under 10 active; AID 1766; inconclusive = falling polarisation curve, or a change in total fluorescence; inactive = total fluorescence flat and polarisation flat or rising; no compound was filed as active; the % refers to the polarisation; negative = inhibition;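 further: % of control where 0% means no effect; inhibitors lower the polarisation; unlabelled MLL peptide was the positive control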
ClpP mod = qHTS Assay for Activators of ClpP; purified B. subtilis ClpP, FRET peptide cleavage, 20 min; Potency, µM (highest dose often 57.5 µM), inactives show top-dose activity change, negative = active; hit rate 1.9% among 340,000; ATP-dependent Clp protease proteolytic subunit (Bacillus subtilis (strain 168)), P80244; active = well fitted falling curve with a large enough effect; inconclusive = small, poorly fitted or top-dose-only effect; inactive = no such curve, though single readings can be large or run the other way; further: potency means the concentration at half of the fitted maximal effect; the source files actives as falling curves though it sought activators and does not explain the sign; nearly all actives have a fitted effect of over 65% in size; many hits overshoot -100%
Target sequence (P80244 whole entry, looked up): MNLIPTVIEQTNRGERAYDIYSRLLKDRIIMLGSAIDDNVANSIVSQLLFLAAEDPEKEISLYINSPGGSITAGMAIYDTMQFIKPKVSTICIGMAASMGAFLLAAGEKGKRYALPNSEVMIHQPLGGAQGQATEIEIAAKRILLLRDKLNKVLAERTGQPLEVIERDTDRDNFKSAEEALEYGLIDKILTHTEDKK
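FRET quenching reversal measured ClpP activation: 10 microg/mL B. subtilis ClpP at pH 8 with the FRET-FV decapeptide, read at 430 nm after 320 nm excitation. The 20-min minus 0-min signal was scaled between DMSO/no-enzyme wells and ADEP (5.8 microM final).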
CtBP-E1A blk = blocks the CtBP interaction with E1A. activity change, % (no concentration beside the values). hit rate 0.49% among 340,000. AlphaScreen GST-E1A/His-CtBP binding, 1536-well; active compounds read low; control for the full effect not named in the record; in the data active means activity change below about -65%; inconclusive means about -30% to -65%; inactive means above about -30%; further: on the % scale 0 is the no-effect control and ±100 the full control effect
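In 5 uL wells, 23 nL compound meets equimolar GST-E1A and His-CtBP (5X stock 125 nM each) for 2 h, 37 °C. Beads (5X, 50 ug/mL) then 1 h, 37 °C, dark.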
gsp agonist = gsp mutant agonism; Potency, µM (series often up to 76.9 µM), for inactives: at the top dose activation (cAMP increase), hits mostly activators; gsp mutant cells, cAMP HTRF, 30 min; control for the full effect not named in the record; hit rate 0.13% among 340,000; active = well fitted activation curve with a large enough effect; inconclusive = small, poorly fitted or top-dose-only effect, or another doubt; inactive = no such curve, though single readings can be large or run the other way; cell line not stated here;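 further: phosphodiesterase inhibitor Ro 20-1724 added with compounds to block cAMP breakdown; potency means the concentration at half of the fitted maximal effect; nearly all actives have a fitted effect of over 60% in size; about a fifth of the inactives were tested at one dose only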
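Cells stably selected in G418 were plated at 2000/well, grown 16-24 hr, then given compounds in DMSO with the PDE inhibitor […] (300 uM solution added) for 30 min at 37C; cAMP was read by HTRF.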
Sfp PPTase inh = blocks B. subtilis Sfp PPTase activity | Q9F4F7 | Biochemical Sfp PPTase activity, qHTS | Potency, µM, for the others: max response, negative = inhibition, actives largely listed as inhibitors | hit rate 3.5% among 310,000 | AID 1490; active means well fitted inhibition curve with a large enough effect; inconclusive means small, poorly fitted or top-dose-only effect, or another doubt; inactive means no such curve, though single readings can be large or run the other way;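 further: the enzyme is Sfp with the accession as filed and its product quenches rhodamine fluorescence; potency means the concentration at half of the fitted maximal effect; 0% = enzyme reaction without inhibitor and -100% = no enzyme wells; top concentration of the series not given in the record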
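Compounds were incubated with enzyme (final 15 nM) for 15 min at room temperature before substrate addition started the reaction. Fluorescence at 525 nm excitation, 598 nm emission was recorded immediately and after 30 minutes.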
TRPV1 potentiator = enhances activation of the human vanilloid receptor TRPV1. Q8NER1. TRPV1-expressing cells, Fluo-8 calcium influx, capsaicin EC20 potentiation; host cell line not named in the record; control for the full effect not named in the record. potentiation, % at 8.33 µM. hit rate 0.02% among 320,000. AID 540277; active means potentiation above 80%; inconclusive means 30% to 80%; inactive means below 30%; further: 0% is about no effect
Target sequence (Q8NER1 whole entry, looked up): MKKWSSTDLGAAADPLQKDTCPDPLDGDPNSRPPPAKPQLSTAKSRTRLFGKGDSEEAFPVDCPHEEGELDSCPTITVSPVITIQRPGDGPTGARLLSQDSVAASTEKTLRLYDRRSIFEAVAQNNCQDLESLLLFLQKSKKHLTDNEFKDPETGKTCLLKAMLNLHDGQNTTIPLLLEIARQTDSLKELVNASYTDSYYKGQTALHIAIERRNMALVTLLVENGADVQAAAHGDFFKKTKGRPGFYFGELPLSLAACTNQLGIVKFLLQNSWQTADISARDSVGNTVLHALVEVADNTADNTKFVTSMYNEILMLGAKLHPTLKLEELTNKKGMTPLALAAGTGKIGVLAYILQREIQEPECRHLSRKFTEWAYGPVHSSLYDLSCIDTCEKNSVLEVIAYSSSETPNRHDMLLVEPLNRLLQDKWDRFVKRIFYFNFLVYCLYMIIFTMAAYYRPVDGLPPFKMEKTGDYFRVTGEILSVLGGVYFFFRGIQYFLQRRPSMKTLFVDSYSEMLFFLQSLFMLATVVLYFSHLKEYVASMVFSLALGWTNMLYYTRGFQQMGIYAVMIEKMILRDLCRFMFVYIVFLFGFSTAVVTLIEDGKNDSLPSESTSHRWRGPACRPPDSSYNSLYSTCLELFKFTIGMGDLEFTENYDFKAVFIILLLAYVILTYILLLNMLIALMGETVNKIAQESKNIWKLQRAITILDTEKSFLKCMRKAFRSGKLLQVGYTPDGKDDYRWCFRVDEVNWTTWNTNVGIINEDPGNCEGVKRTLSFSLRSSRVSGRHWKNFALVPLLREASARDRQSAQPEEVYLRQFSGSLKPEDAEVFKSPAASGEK
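TRPV1-expressing cells were cultured overnight at 35.5C and loaded with Fluo-8 calcium dye for 40 to 90 min at room temperature. After a 10 s baseline, compound was added and calcium influx was read kinetically for 3 min (ex 480/em 520 nm).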
gsp antagonist = antagonists of gsp mutant (McCune-Albright syndrome); gsp-mutant cells, cAMP HTRF, 30 min; control for the full effect not named in the record; Potency, µM (highest dose often 76.9 µM), without a hit: top-dose activity change, negative = inhibition, hits mostly inhibitors; hit rate 0.4% among 340,000; AID 624288; active = falling curve of any shape with a large fitted effect; inconclusive = falling curve, mostly with a smaller effect; inactive = flat or rising curve; cell line not stated here;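 further: intracellular cAMP measured with PDE inhibitor Ro 20-1724 present during compound exposure; potency means the concentration at half of the fitted maximal effect; on the % scale 0 is the no-effect control and ±100 the full control effect; nearly all actives have a fitted effect of over 65% in size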
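Cells, 2000/well, grown 16–24 h in DMEM 10% FBS with 0.5 mg/ml G418, then compounds plus […] (300 uM addition stock), 30 min at 37C. cAMP read by HTRF (cAMP-d2 and anti-cAMP antibody-K in lysis buffer) after 30 min RT.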
The depositor's hits bear a star; ? = inconclusive; nt = not tested or not shown; & = joins results of further samples; [ ] = remark or other dose.

SMILES	Menin MLL FP FL	ClpP mod	CtBP-E1A blk	gsp agonist	Sfp PPTase inh	TRPV1 potentiator	gsp antagonist
CCN1C(=O)[C@@H]2[C@@H](c3ccc(-c4ccccc4)cc3)N3CCC[C@@]3(C(=O)OC)[C@@H]2C1=O	nt	-1.0%	-6	5%	nt	nt	-1%
O=C(CN1CCN(c2ccc(F)cc2)CC1)c1cccs1	2.3	-1.9%	nt	4%	-8%	-4	6%
COc1ccc(OC)c(NC(=O)c2cc3n(n2)C(C(F)(F)F)CC(c2ccc4c(c2)OCO4)N3)c1 (stereo not drawn)	7.9	?	-15	?	19%	18	-2%
O=C(O)c1ccc(NC(=S)NC(=O)C(c2ccccc2)c2ccccc2)cc1	-0.5	0.8%	-2	?	0%	11	?
O=C(Cc1ccc(Cl)cc1)N/N=C/c1cccc(O)c1	1.1	1.3%	nt	0%	14%	13	50µM*
Nc1[nH]c(=O)[nH]c(=O)c1N=Nc1cccc(Cl)c1	-0.5	-1.3%	-8	?	-20%	2	3%
CN(Cc1ccccc1)Cc1nc2c(c(=O)n(C)c(=O)n2C)n1Cc1ccc(Cl)cc1	-0.1	-1.8%	7	-1%	-18%	-25	3%
Cc1c(O[C@@H]2O[C@H](CO)[C@@H](O)[C@H](O)[C@H]2O)ccc2c1oc(=O)c1ccccc12	3.8	3.7%	nt	4%	9%	-4	3%
O=C(O)c1ccc(CS(=O)(=O)Cc2ccccc2F)o1	0.0	2.4%	3	-2%	24%	1	3%
CCOC(=O)c1c(C)nc2sc3c(=O)n(-c4ccc(C(C)=O)cc4)nnc3c2c1-c1ccc(OC)cc1	-2.6	-2.0%	-7	-24%	-9%	7	?
CCN(CC)S(=O)(=O)c1ccc2oc(SCC(=O)Nc3cc(C)on3)nc2c1	nt	-2.0%	-20	-13%	nt	-3	-11%
CN(C)S(=O)(=O)c1cccc(NC(=O)CO/N=C(\N)c2ccccc2)c1	nt	0.7%	7	-37%[inhibitor]	nt	-2	11%
Cc1c(C(=O)N(C)C)sc(NC(=O)c2cccc([N+](=O)[O-])c2)c1C#N	7.8	-1.5%	2	-16%	2%	2	?
CCOc1ccc(NC2OC(CO)C(O)C(O)C2O)c([N+](=O)[O-])c1 (stereo not drawn)	1.7	nt	-10	-39%[inhibitor]	12%	2	-1%
CN(C)CCCNC(=O)CC1C[C@H](C(=O)N2CCOCC2)[C@@]2(CCC3CCCC3)c3[nH]c4ccccc4c3CCN2C1=O (stereo partly drawn)	nt	0.0%	0	nt	nt	nt	5%
COc1ccc(-n2ccnc2SCC(=O)Nc2cc(C)on2)cc1	nt	-0.9%	4	12%[15.4 µM]	8%	3	-4%
CSCCC(NC(=O)c1cc(C(C)(C)C)oc1C)C(=O)O (stereo not drawn)	3.0	1.2%	5	-4%	7%	3	0%
Cc1sc(-c2ccccn2)nc1OC(=O)c1ccc(F)cc1F	6.0	nt	7	27%[15.4 µM]	16µM*	-12	-15%
CC(=O)NC(CC(=O)N(Cc1ccccc1)c1ccc(C)cc1)c1ccccc1 (stereo not drawn)	nt	-2.1%	-14	26%	3%	-13	-1%
O=C(NCc1ccccn1)c1ccc(Cl)c(S(=O)(=O)N2CCCCC2)c1	-6.0	nt	nt	9%[15.4 µM]	10%	-21	-6%
CCN1CCN(CCOc2ccc(Br)cc2C)CC1	0.0	1.7%	4	-6%	50µM*	1	23%
COc1cc(C(=O)O/N=C(\N)c2cccc([N+](=O)[O-])c2)cc(OC)c1OC	5.4	-0.8%	7	7%[15.4 µM]	15%	19	-8%
O=C(NCc1cccs1)c1cc(S(=O)(=O)N2CCOCC2)c(Cl)cc1Cl	-2.8	-2.6%	1	19%	11%	-22	-6%
Cc1nc(NC(=O)CCc2ccccc2)ccc1Br	0.7	-4.1%	4	-3%	4%	0	7%
Cc1ccc(C)c(NC(=O)CCCCCCCCCCC2COCCO2)c1 (stereo not drawn)	5.5	-3.3%	0	24%	6%	-8	5%
CCOC(=O)CN/C=C(\C#N)c1ccccc1	8.6	-1.2%	nt	-42%[inhibitor]	0%	11	4%
COc1ccccc1C(=O)Nc1nc2ccccc2[nH]1	0.0	nt	-5	11%[15.4 µM]	0%	2	-15%
Cc1nn(C)c(Oc2ccccc2)c1CCNC(=O)C(C)(C)C	1.0	-1.1%	-10	2%	11%	-6	-3%
COc1cccc(N(CC(=O)NC2CCCCC2)C(=O)CCCC(=O)Nc2ccccn2)c1	4.9	nt	0	?	-1%	11	-6%
Cc1cc(C)n2cc(CSc3nnc(N)s3)nc2n1	0.0	-22%	5	-19%	-19%	25	-8%

Reprinted at random: 2 entries already listed.
SMILES	Menin MLL FP FL	ClpP mod	CtBP-E1A blk	gsp agonist	Sfp PPTase inh	TRPV1 potentiator	gsp antagonist
Cc1nc(NC(=O)CCc2ccccc2)ccc1Br	0.7	-4.1%	4	-3%	4%	0	7%
COc1ccc(-n2ccnc2SCC(=O)Nc2cc(C)on2)cc1	nt	-0.9%	4	12%[15.4 µM]	8%	3	-4%

Following part:
SMILES	Menin MLL FP FL	ClpP mod	CtBP-E1A blk	gsp agonist	Sfp PPTase inh	TRPV1 potentiator	gsp antagonist
CCN1/C(=C\C=C2\C(=O)N(c3ccccc3)C(=S)N2C)Sc2ccccc21	?	nt	-7	-17%[15.4 µM]	?	?	5%
Cc1ccccc1NC(=O)C(C#N)Cc1cccnc1 (stereo not drawn)	-2.7	3.8%	-27	?	4%	?	6%
O=C(Nc1ccc(Cl)cc1C(=O)Nc1ccc(Br)cn1)c1ccco1	2.0	?	-2	?	-10%	-18	-1%
O=CC1=C(c2ccccc2)Oc2ccccc2O1	1.4	nt	?	-19%	2%	22	-14%
COc1cccc(-c2nc(OC(C)C)c3ccccc3n2)c1	-1.7	-16%	2	-43%[inhibitor]	-16%	-4	0%
c1ccc2c(c1)ncn2-c1ccc(-c2ccnc(-c3ccncc3)n2)cc1	-0.9	-6.1%	-1	1%	8%	-14	4%
CCc1ccc2nc(Nc3ncc(C(C)=O)c(C)n3)nc(C)c2c1	10	-7.9%	nt	-1%	1%	-3	4%
CCOc1ccc2nc(NC(=O)C(NS(=O)(=O)c3cccs3)C(C)C)sc2c1 (stereo not drawn)	2.3	-2.4%	10	?	8%	18	1%
Cc1nc2ccc(S(=O)(=O)c3ccc4nc(C)[nH]c4c3)cc2[nH]1	1.2	-5.1%	-14	14%	9%	-4	4%
C[C@H](CO)N1C[C@H](C)[C@@H](CN(C)S(=O)(=O)c2ccccc2)Oc2ccc(NC(=O)C3CCCCC3)cc2C1=O	nt	0.1%	-9	22%	nt	nt	2%
CCCCCn1cnc2c(=S)nc(N)[nH]c21	-6.9	2.9%	nt	-11%	2.5µM*	-23	-1%
COC(=O)c1scc(C)c1N1C(=O)c2ccccc2C1=O	-0.9	nt	-3	0%	14%	-3	4%
COc1ccc(OC)c(-c2nc(CN(C)C(C)c3ccncn3)c(C)o2)c1 (stereo not drawn)	-2.4	nt	22	5%[15.4 µM]	5%	-5	-6%
O=[N+]([O-])c1cc(-c2ncccn2)c([N+](=O)[O-])s1	2.0	0.6%	-10	?	?	1	?
O=C(CN1CCN(Cc2ccccc2)CC1)c1ccccc1	2.8	-3.6%	12	7%	13%	2	5%
c1ccc(CCCN2CCN(c3ccccc3)CC2)cc1	1.3	0.0%	-1	30%[15.4 µM]	5%	17	-3%
COC(=O)Cn1c(C(=O)N2CCCC2)cc2c1C[C@H]1CN(C(=O)c3ccccc3)[C@@](Cc3ccc(F)cc3)(C(=O)OC)[C@@H]21	0.2&-1.3	2.9%	nt	-10%	-3%&15%	-3	-5%
CCO[C@H]1OC(C(=O)Nc2ccccc2)=C[C@@H](c2csc3ccccc23)[C@@H]1CCCO	2.1	-1.2%	-2	nt	7%	-4	-26%
COc1ccc(Cl)c(NC(=O)C/C(C)=N/NC(=O)CCc2ccccc2)c1	0.3	nt	-11	-4%[15.4 µM]	5%	?	-27%
O=C(COC(=O)COc1ccccc1)Nc1cccc([N+](=O)[O-])c1	-1.7	nt	5	39%[15.4 µM]	14%	-8	6%
O=c1ccc2c([nH]1)CCCCCCCCCC2	4.4	-11%	-4	1%[15.4 µM]	0%	-18	-1%
O=C(O)c1ccc(N(Cc2ccccc2)S(=O)(=O)c2ccccc2)cc1	1.2&9.1	-0.1%	7	19%&-4%	28%&22%	-9&1	6%&-8%
COc1ccc(NC(=O)[C@@H](NC(=O)c2ccccc2)C(C)C)cc1S(=O)(=O)N1CCCCC1	-1.7	1.1%	-3	8%	-5%	?	-14%
Cc1c(C(=O)NCCc2ccc(Cl)cc2)sc2nc3n(c(=O)c12)CCC3	nt	-13%	-19	-20%	15%	-2	-13%
O=C(CN1C(=O)/C(=C\c2cccc(Cl)c2)Oc2ccccc21)N1CCN(c2ccccn2)CC1	0.4	nt	nt	nt	-18%	-3	nt
O=S(=O)(NCCOCCNS(=O)(=O)c1ccccc1)c1ccccc1	1.9	-1.6%	7	8%[15.4 µM]	10%	2	5%
C=C(C)c1cccc(C(C)(C)NC(=O)N2CCN(C)CC2)c1	0.9	-1.4%	9	-13%	2%	11	-9%
CCOC(=O)N1CC(=O)Nc2ccc(Br)cc2C1c1ccccc1 (stereo not drawn)	-0.9	0.3%	1	?	3%	-21	2%
O=[N+]([O-])c1ccccc1C=NNC(=S)NN=Cc1ccccc1[N+](=O)[O-]	nt	nt	?	-41%[inhibitor]	nt	nt	?
COCCN(C(=O)COC(=O)c1nc(Cl)ccc1Cl)c1c(N)n(Cc2ccccc2)c(=O)[nH]c1=O	nt	2.0%	19	3%	nt	-13	5%
Cc1cc(C)cc(NC(=O)CN(C)S(=O)(=O)c2cnc[nH]2)c1	2.6	-0.4%	0	-25%	19%	5	1%
Cc1nccn1CCCNC(=O)CC1C(=O)NCCN1Cc1ccc(Cl)c(F)c1 (stereo not drawn)	-14	-4.5%	nt	5%	16%	2	7%
COCc1nnc(NC(=O)c2cc3ccccc3o2)s1	nt	nt	5	0%[15.4 µM]	6%	6	2%
COc1ccc(CCNC(=O)c2ccc(NC3=NC4CS(=O)(=O)CC4S3)cc2)cc1OC (stereo not drawn)	nt	-1.6%	1	-35%[inhibitor]	17%	-9	15%

Records above marked active in gsp antagonist:
SMILES | Menin MLL FP FL | CtBP-E1A blk | gsp agonist | Sfp PPTase inh | gsp antagonist
O=C(Cc1ccc(Cl)cc1)N/N=C/c1cccc(O)c1 | 1.1 | nt | 0% | 14% | 50µM*
